PrP 5UTR inh = inhibition of PrP 5' UTR reporter expression; cell-based PrP 5' UTR mRNA reporter, plate reader; inhibition, % (no concentration beside the values); 0.35% of 340,000 active; AID 488862;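 active means every replicate at 50% or more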;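 further: 0 = median of the neutral control wells; tested in H4 reporter cells; numbers are from one replicate; inactives centre near -14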
RN4220 kill = S. aureus RN4220 growth inhibition; OD600, 16 h; inhibition, % (no concentration beside the values); 0.33% of 330,000 active;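 active means z-score of -3 or lower and OD600 up to 0.18 on both plates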;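 further: plate controls were untreated cells for no effect and reference antibiotic for full effect; stock transfer was 100 nL into about 80 µL; one replicate is shown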
Sa ugtP lethal = compounds lethal to S. aureus RN4220 ugtP deletion mutant. 0.54% of 330,000 active. OD600 growth, 16 h; some inactives read as strong as hits. growth inhibition, % (concentration not given with the values);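 active means z-score under -3 and OD600 up to 0.15 on both plates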;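 further: plate controls were untreated wells for no effect and antibiotic for full effect; wells of about 80 µL received 100 nL stock; the first replicate is given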
BJeLR lethal = kills HRASV12-expressing BJeLR cells | BJeLR (HRASV12) viability, CellTiter-Glo ATP luminescence, 48 h; reference of the scale not given here | inhibition, % (concentration not given with the values) | 0.17% of 300,000 active | AID 1554;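 active means replicate mean above 50%; inconclusive means above 50% but judged a plate artefact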;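 further: 50 nL library stock added to about 25 µL; numbers are from one replicate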
Mtb hypoxia rep = Mtb hypoxia fluorescent reporter inhibition. M. tuberculosis hypoxia-regulated fluorescent reporter, fluorescence. fluorescence inhibition, % (concentration not given with the values). 0.1% of 300,000 active;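 active means 35 to 45% if threefold the growth effect, above 45% if 1.5-fold the growth effect; inactive means the rest, general growth blockers included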;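 further: wells of about 50 µL received 100 nL stock; 0% = vehicle wells and 100% = reference inhibitor wells; whole bacteria with a GFP reporter of the hypoxia response; strong numbers were not always called active; many hits fall short of the cut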
Autofluor counter = compound fluorescence in toxin protease inhibitor counterscreen; compound autofluorescence counterscreen, microsphere flow cytometry; stronger effect = higher value; fluorescence intensity (concentration not given with the values); 3.1% of 360,000 active; AID 624483;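 active means at least 3 SD above the mean of all compounds, about 16000 in these data; inconclusive means too few beads counted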;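 further: 100 nL of 1 mM stock went into each well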
Mtb hypoxia rep growth = second read-out of Mtb hypoxia rep, no call of its own (marks repeat the call); growth inhibition, %; measured here: M. tuberculosis growth (absorbance);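 0% = vehicle and 100% = reference antibiotic; read after six days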
* = called active by the depositor; ? = inconclusive; . = no result given.

SMILES	PrP 5UTR inh	RN4220 kill	Sa ugtP lethal	BJeLR lethal	Mtb hypoxia rep	Mtb hypoxia rep growth	Autofluor counter
Cc1ccc(OCC(=O)Nc2ccc(NC(=O)c3ccco3)cc2)c(C)c1	-16	6.5	-11	-5	3	6	3541
CS(=O)(=O)c1cnc(-c2ccccc2)nc1-c1ccccc1Cl	-4	6.3	27	5	-5	16	4645
Cc1ccnc(NC(=O)c2cc3ccccc3oc2=O)c1	-83	-2.1	10	8	12	3	4429
CCCCNC(=O)c1ccc2c(c1)S(=O)(=O)c1ccccc1C2=O	-7	8.5	7	6	4	5	.
COC(=O)Cc1c(C(=O)OC)nnn1-c1ccc(OC)cc1	-19	2.6	3	-3	14	-3	2139
CC(=O)Nc1ccc(C(C)=NNc2nc(Nc3ccccc3)nc(N3CCOCC3)n2)cc1	.	2.4	-2	.	-6	2	.
O=C1C2CC=CCC2C(=O)N1c1ncn[nH]1 (stereo unspecified)	0	2.2	6	-3	8	4	16218*
COC(CN(C(=O)CCl)C(C(=O)NC1CCCCC1)c1ccc(Cl)cc1)OC (stereo unspecified)	-25	4.1	16	-1	21	16	10815
OC(COc1ccccc1)CN1CCN(c2ncccn2)CC1 (stereo unspecified)	-29	2.6	5	0	8	10	9577
CCNc1nc(C23CC4CC(CC(C4)C2)C3)cs1	-3	2.4	8	-2	-29	-3	3487
CC(OC(=O)c1cc2ccccc2[nH]1)C(=O)N(C)c1ccccc1 (stereo unspecified)	-17	2.9	-7	.	2	7	3928
O=C(NCc1ccccc1)c1cc2nc(C3CC3)cc(C(F)(F)F)n2n1	0	2.1	6	2	6	10	8765
O=C(NNc1c2ccccc2nc2ccccc12)c1ccccc1Cl	-13	-0.3	1	6	20	15	3451
N/C(=N\OC(=O)c1cccs1)c1ccc(Cl)cc1	.	1.0	19	-7	12	7	3996
Cn1nc(-c2ccccc2F)c2cc(C(=O)N3CCN(C(=O)c4ccco4)CC3)sc21	-11	2.6	-6	4	-6	14	10006
COC(=O)c1ccc2c(=O)n3c(nc2c1)SCC(c1ccccc1)=N3	-31	3.2	3	-2	3	6	5872
CCCc1cc(=O)[nH]c(SCC(=O)c2cc(C)n(CC(F)(F)F)c2C)n1	-11	5.8	6	-3	9	4	3849
O=C1[C@@H](Oc2ccccc2)[C@@H](c2ccncc2)N1c1ccncc1	-13	0.7	-4	.	2	1	3590
Nc1ccc(Br)c2c1C(=O)c1ccccc1C2=O	.	0.5	30	2	-83	-12	.
CC(=O)Nc1ccc(Nc2nnc(-c3ccc(C)c(S(=O)(=O)NCCO)c3)c3ccccc23)cc1	-15	4.4	15	0	-7	1	2801
N#CSCC(=O)c1cccc2ccccc12	-10	7.2	-2	.	10	6	2637
Cc1ccc(NC(=O)CSCC(=O)N2CCN(Cc3ccc4c(c3)OCO4)CC2)cc1	-11	0.1	7	4	8	9	5726
Cn1cc(CC(=O)NCCN2CCOCC2)c2ccccc21	6	1.1	3	2	5	0	2141
C/C(=N/NC(=O)c1ccccn1)c1ccco1	-25	.	.	29	.	.	5020
O=C(NC(=O)N1CCN(C(c2ccccc2)c2ccccc2)CC1)c1ccccc1	-14	-2.3	7	17	15	7	4831
COc1ccc(CNCC(O)(c2ccccc2)c2ccccc2)cc1OC	-5	1.9	-1	9	4	16	4872
C=CCn1c(SCn2nnc3ccccc3c2=O)nnc1C1CCCCC1	-23	0.1	10	-5	.	.	4752
N#Cc1ccccc1OCC(=O)Nc1ccc(S(=O)(=O)N2CCOCC2)cc1	-41	4.2	6	.	14	10	3020
CNC(=S)N1N=C(c2ccccc2)CC1c1ccccc1Cl (stereo unspecified)	-27	5.9	4	5	4	10	4662
O=C(CN1CCN(Cc2ccc(F)cc2Cl)C1=O)NCCc1ccccc1	-23	6.6	3	10	6	3	6159
OCCC1CN(Cc2ccccn2)CCN1C1CCCC1 (stereo unspecified)	-27	2.4	0	2	2	-2	4784
COc1ccc2nc3cc(Cl)ccc3c(C#N)c2c1	-14	2.2	0	2	15	6	4310
COc1cc(C=NNc2nc3ccccc3[nH]2)cc(Br)c1OCC(=O)N(C)C	.	-5.7	2	.	3	0	.
CN(CC(=O)Nc1ccc(OC(F)(F)F)cc1)C(=O)c1ccccc1SCC(=O)N1CCCC1	-22	-3.6	0	.	-2	4	3720
O=C(CN1CCN(C(=O)c2ccccc2)CC1)Nc1cc(S(=O)(=O)N2CCCC2)ccc1Cl	-5	1.6	1	.	-4	1	3810
Cc1ccc(N(C(=O)c2ccc(S(=O)(=O)N3CCOCC3)cc2)C2C=CS(=O)(=O)C2)cc1 (stereo unspecified)	-29	0.7	4	-7	-7	-10	6855
COC(=O)c1ccc(CN(c2ccccc2Cl)S(C)(=O)=O)cc1	-4	6.9	-4	-2	11	3	3381
COc1ccc2sc(-c3ccc(S(C)(=O)=O)cc3)c(-c3ccc(C(N)=O)cc3)c2c1	-8	6.4	1	.	3	6	3530
CCc1ccc(-c2cc(C)no2)cc1S(=O)(=O)N1CCCN(Cc2ccc(F)cc2)C1	0	-0.7	1	5	1	1	5051
COc1ccc(-c2nc(N)sc2C2(O)C(=O)Nc3c(Br)cc(F)cc32)cc1OC (stereo unspecified)	-5	7.5	11	-3	4	6	2155
O=C(NCCCCc1ccccc1)c1ccc(F)cc1	-20	-4.9	1	-5	8	18	3860
COc1ccc(N2C(=O)CC(Sc3n[nH]c(-c4cccc(C)c4)n3)C2=O)cc1 (stereo unspecified)	.	6.3	3	-2	3	0	.
COc1cc(O)oc1C=Nc1ccc(Cl)cc1Cl	-17	2.3	2	1	0	7	8787
N#CCCNCC1(c2ccccc2)CCCC1	-18	0.5	0	2	.	.	4511
Cc1ccc(C(=O)Nc2ccccc2)cc1S(=O)(=O)N1CCN(C)CC1	-11	3.4	11	-2	-2	0	3261

Of the compounds above, 8 have fluorine:
SMILES	PrP 5UTR inh	RN4220 kill	Sa ugtP lethal	BJeLR lethal	Mtb hypoxia rep	Mtb hypoxia rep growth	Autofluor counter
O=C(NCc1ccccc1)c1cc2nc(C3CC3)cc(C(F)(F)F)n2n1	0	2.1	6	2	6	10	8765
Cn1nc(-c2ccccc2F)c2cc(C(=O)N3CCN(C(=O)c4ccco4)CC3)sc21	-11	2.6	-6	4	-6	14	10006
CCCc1cc(=O)[nH]c(SCC(=O)c2cc(C)n(CC(F)(F)F)c2C)n1	-11	5.8	6	-3	9	4	3849
O=C(CN1CCN(Cc2ccc(F)cc2Cl)C1=O)NCCc1ccccc1	-23	6.6	3	10	6	3	6159
CN(CC(=O)Nc1ccc(OC(F)(F)F)cc1)C(=O)c1ccccc1SCC(=O)N1CCCC1	-22	-3.6	0	.	-2	4	3720
CCc1ccc(-c2cc(C)no2)cc1S(=O)(=O)N1CCCN(Cc2ccc(F)cc2)C1	0	-0.7	1	5	1	1	5051
COc1ccc(-c2nc(N)sc2C2(O)C(=O)Nc3c(Br)cc(F)cc32)cc1OC (stereo unspecified)	-5	7.5	11	-3	4	6	2155
O=C(NCCCCc1ccccc1)c1ccc(F)cc1	-20	-4.9	1	-5	8	18	3860

Continued.
SMILES	PrP 5UTR inh	RN4220 kill	Sa ugtP lethal	BJeLR lethal	Mtb hypoxia rep	Mtb hypoxia rep growth	Autofluor counter
CC(=O)Nc1sc(/C(C#N)=C\c2cccc(Cl)c2)nc1-c1ccc(C)cc1	-23	-8.6	-17	3	7	-5	2931
Cc1cccc(N(C)S(=O)(=O)c2c(C)[nH]c(C)c2C(=O)N2CCCC2)c1	-15	1.5	2	4	10	14	5248
COc1ccc(C(CNc2ccc(S(=O)(=O)N3CCCC3)cc2[N+](=O)[O-])N2CCCC2)cc1 (stereo unspecified)	-14	1.0	4	7	-1	6	2207
Cc1cc(N/N=C\c2ccccc2)nc(-c2ccccc2O)n1	-42	.	.	7	.	.	2098
O=C(NCc1ccncc1)Nc1ccc(Cl)cc1Cl	-4	-2.6	7	10	.	.	4574
CC1(C)Cc2nc(-c3ccccc3)nc(NNC(=O)c3ccco3)c2CO1	-17	3.4	15	9	14	4	4671
O=C(O)c1ccccc1NS(=O)(=O)c1ccc2c(c1)OCCO2	-25	5.9	3	-2	20	15	2489
Cc1ccc(O)c(C(=O)c2cnc3c(c2)c(C)nn3C)c1	-11	6.6	1	2	-9	13	5575
C=CCn1c(SCC(=O)Nc2cc(C)on2)nc2c([nH]c3ccccc32)c1=O	-5	1.2	-3	2	-1	-10	?
COc1ccc(-n2nnnc2SCC(=O)N2C(C)CCCC2C)c(OC)c1 (stereo unspecified)	-12	-1.5	-5	-1	-2	-5	12818
Cc1ccc2c(Cl)c(C(=O)Nc3ccc4c(c3)OCO4)sc2c1	-61	4.3	-5	-12	-3	1	2109
O=C(NC1CCCCC1)C(c1ccco1)N(Cc1ccco1)C(=O)c1ccco1 (stereo unspecified)	-4	-0.3	-2	7	4	14	10954
Cc1c(Cl)cccc1Nc1nc(N)nc(CSC(=S)N2CCOCC2)n1	-41	3.3	-13	1	-2	0	2169
CC(=O)Nc1cc2c(cc1C(=O)c1ccc(C)cc1)OCCO2	-17	0.5	-3	-2	.	.	2880
CC(Sc1ccccc1)C(=O)NCC(c1ccco1)N1CCCCC1 (stereo unspecified)	-12	1.5	-1	4	0	-4	?
CC(C)(c1ccccc1)c1ccc(OCCn2cnc3ccccc3c2=O)cc1	-8	-1.7	15	1	12	6	4114
CCOc1ccc(N2C(=O)CC(Cc3ccccc3OC)C2=O)cc1 (stereo unspecified)	-22	2.4	1	-7	14	9	3996
O=C(O)COc1ccccc1/C=N/NC(=O)CN1CCN(Cc2ccc(Cl)cc2)CC1	-13	.	.	6	.	.	4589
Cn1cnnc1Sc1ccc(CN2CCN(C3CCCC3)C(CCO)C2)o1 (stereo unspecified)	-26	2.4	1	-10	3	-1	2734
O=C(O)COc1cccc2nsnc12	-16	-3.0	9	-4	17	7	3491
O=C([O-])c1cc(-c2ccccc2)cc(-c2ccccc2)[n+]1CCc1ccc(Cl)cc1	-5	88*	100*	.	3	22	4013
COc1ccccc1N(CC(O)Cn1c2ccccc2c2ccccc21)S(=O)(=O)c1ccccc1 (stereo unspecified)	-33	7.2	-12	1	-8	0	2173
CC1(C)NC(=O)N(CCCCOc2ccc3c(c2)CCC3)C1=O	-18	3.9	4	11	1	13	9739
Cc1occc1-c1nnc(SCC(=O)NCc2ccco2)n1CC(C)C	-17	6.9	-5	3	.	.	3143
CCCCn1cnc2sc(-c3ccccc3)cc2c1=O	-130	5.0	-3	6	.	.	4060
COc1ccc(C=NNC(=O)c2ccccc2OCc2ccc(F)cc2)c(OC)c1	0	0.7	3	.	2	3	3559
COc1ccccc1NC(=O)CN1CCN(CC(=O)Nc2ccc(S(N)(=O)=O)cc2)CC1	-5	1.0	3	3	10	7	3397
COc1ccc(OCc2csc(N)n2)cc1	-59	5.5	2	13	-4	5	3372
COc1ccc(CCNC(=O)CN2C(=O)NC3(CCOc4ccccc43)C2=O)cc1 (stereo unspecified)	-27	4.5	15	.	-9	1	?
S=C(NCCc1ccccc1)N/N=C/c1c(Cl)cccc1Cl	0	.	.	-17	.	.	2534
CCCCCn1c(CNC(=O)CC)nc2ccccc21	-34	4.9	2	-9	6	1	6667
O=C1/C(=C/c2ccc(F)cc2)SC(=S)N1CCCC(=O)N1CCCCC1CCO (stereo unspecified)	-15	0.3	-12	5	10	22	5998
O=C(COC(=O)CNS(=O)(=O)c1ccc(Br)cc1Cl)NC1CC1	6	4.6	1	0	10	0	5319
Cc1ccc(C(=O)OCC(=O)Nc2ccccc2)cc1S(=O)(=O)N1CCCCC1	-8	3.3	-5	.	35*	77*	8838
O=C(NCCc1nnc2ccc(N3CCCCCC3)nn12)c1ccccc1	-20	-0.8	3	-3	6	-5	6129
CCN(CC)/C(Sc1ccccc1)=C(/C(Cl)=C(Cl)Cl)[N+](=O)[O-]	5	5.6	1	-1	2	-2	2549
O=C(CNS(=O)(=O)c1cccs1)NCCc1ccc(Cl)cc1	-23	-2.4	15	8	6	2	3676
Clc1cccc(NCc2nnc(SCc3ccccc3)o2)c1	-23	7.0	-4	-6	5	1	4624
CCCCOC(=O)c1ccc(OC(=O)c2cccnc2)cc1	-14	11	2	-8	3	7	4352
COCC1CCN(C(=O)c2cc(COc3ccc(-n4cncn4)cc3)on2)CC1	-2	-1.1	-3	4	-2	11	5217

Screening data as filed in PubChem.
